VDR inh: vitamin D3 receptor (human) inhibition; Potency, µM, without a hit: max response, negative = inhibition, hits mostly inhibitors; AID 504847; 400,000 tested, 0.93% active; VDR-SRC2-3 peptide fluorescence polarization, 2 h; P11473; active means well fitted inhibition curve with a large enough effect; inconclusive means small, poorly fitted or top-dose-only effect, or another doubt; inactive means no such curve, though single readings can be large or run the other way; further: series mostly up to about 120 µM
Target sequence (P11473 whole entry, looked up): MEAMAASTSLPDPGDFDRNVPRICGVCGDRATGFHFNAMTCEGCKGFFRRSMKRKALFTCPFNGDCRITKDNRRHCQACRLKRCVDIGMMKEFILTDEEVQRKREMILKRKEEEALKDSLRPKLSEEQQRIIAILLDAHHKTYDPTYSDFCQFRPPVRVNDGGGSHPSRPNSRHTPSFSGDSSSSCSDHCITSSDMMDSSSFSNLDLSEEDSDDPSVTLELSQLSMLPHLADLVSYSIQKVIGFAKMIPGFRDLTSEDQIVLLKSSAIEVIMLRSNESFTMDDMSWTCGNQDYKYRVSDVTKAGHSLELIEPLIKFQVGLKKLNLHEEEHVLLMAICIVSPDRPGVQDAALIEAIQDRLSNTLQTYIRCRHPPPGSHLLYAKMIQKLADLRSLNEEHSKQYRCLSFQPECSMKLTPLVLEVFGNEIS
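Reagent solutions, kept cold and dark, are dispensed first; compounds are then pinned in at 23 nl, plates briefly spun, and incubated 2 h at ambient temperature. Inhibition of VDR–SRC2-3 peptide binding is read by fluorescence polarization.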
Numbers without * were called inactive; ? = inconclusive; & = joins results of further samples. On the % scale 0 is the no-effect control and ±100 the full control effect; potency means the concentration at half of the fitted maximal effect.

SMILES | VDR inh
COc1cc(OC)cc(-c2c(-c3ccc(F)cc3)c3cc(-c4ccc5[nH]ccc5c4)ccc3n2C)c1 | 1.5%
CCN(CC)C(=O)CSc1nc2ccccc2c(=O)n1OC(C)C | -20.0%
CC(=O)c1nn(-c2ccc(C)cc2)cc1C(=O)c1cccc(Br)c1 | 3.6%
CC(=O)Nc1ccc(/C=C/c2noc(-c3ccccc3O)n2)cc1 | -15.3%&-8.8%
Cc1cccc(C)c1NC(=O)CNC(=O)c1cccnc1 | 11.1%
CC(C)CCn1c(Sc2nc3ccccc3s2)nc2c1c(=O)[nH]c(=O)n2C | -6.9%
Cc1nc(-c2cccc(S(=O)(=O)N3CCCCC3)c2)cs1 | 27.7%
CCOc1ccc(S(=O)(=O)c2c(C(=O)c3ccc(C)cc3)cnc3cc4c(cc23)OCCO4)cc1 | -14.3%
CC(C)CN(CCCNC(=O)Cn1ncc2c3ccccc3n(C)c2c1=O)CC(C)C | 10.9%
CN1CCN(C(=S)c2cn(Cc3ccccc3)c3ccccc23)CC1 | 0.1%
CCOc1ccc(-c2cc(N)n(S(=O)(=O)c3ccc(OC)c(OC)c3)n2)cc1 | -19.9%
O=C(N1CCOCC1)N1CCN(c2nc(-c3ccc(F)cc3)cs2)CC1 | 13.4%
Cc1ccc(C)c(NC(=O)Cn2c(=O)n(CCC(C)C)c(=O)c3cccnc32)c1 | 0.4%
CC(=O)c1cccc(NCC(=O)Nc2cccc(S(=O)(=O)N3CCCCC3)c2)c1 | -24.8%
Cc1c(NC(=O)c2ccco2)cccc1C(=O)NN1C(=O)c2ccccc2C1=O | -9.3%
COC(=O)C1=C(N)N(c2ccccc2C(F)(F)F)C2=C(C(=O)CCC2)C1c1ccc2c(c1)OCO2 (centres undefined) | 6.7%
Cn1c(=O)c(C(=O)CSc2nncs2)c(N)n(Cc2ccccc2)c1=O | 1.5%
COc1cc(/C=C/C(=O)OCC(=O)NCc2ccc(F)cc2)ccc1O | 18.1%
Cc1ccccc1OCC(=O)N/N=C/c1cn(C)c2ccccc12 | -1.9%
COC(=O)c1ccc(/C=N/OCC(=O)NCc2ccc(F)cc2)cc1 | -9.8%
O=C(NCCCn1ccnc1)c1cc([N+](=O)[O-])cc([N+](=O)[O-])c1 | -8.5%
CC1(C)CC(C(CC(=O)O)c2ccccc2)CCO1 (centres undefined) | -5.3%
CCc1ccc(NC(=S)N(Cc2ccccc2)Cc2ccccn2)cc1 | 11.5%
COc1ccccc1CNC(=O)c1cc2c(s1)-c1ccc(Cl)cc1SC2 | -1.2%
CCn1cc(C(C)NC(=O)COc2ccc(Cl)cc2C)c(C)n1 (centres undefined) | 7.2%
CCCN(C(=O)COC(=O)CCOc1ccccc1C)c1c(N)n(Cc2ccccc2)c(=O)[nH]c1=O | 1.5%
CCCn1c(=O)c(/C(N)=N/O)nn(-c2cccc(C(F)(F)F)c2)c1=O | -2.5%
FC(F)Sc1nc2ccccc2[nH]1 | 20.3%
COc1ccc(C2CCCN2C(=S)Nc2ccccc2C)cc1OC (centres undefined) | -13.4%
COCCOC(=O)Cn1nnc2sc(-c3ccccc3)cc2c1=O | 0.4%
Cc1ccc(C)c(N2CCN(C(=O)CCS(=O)(=O)c3cc4c(cc3Cl)NC(=O)CO4)CC2)c1 | 13.1%
COCCCNC(=O)c1ccc(S(=O)(=O)c2ccc(Cl)cc2)c(NC(C)=O)c1 | 0.9%
CCc1ccc(CNC(=O)CN2C(=O)CSc3ccc(S(=O)(=O)N4CCOCC4)cc32)cc1 | 6.8%
CN(CCC#N)C(=O)COC(=O)c1ccc(CNS(=O)(=O)c2ccc(F)c(Cl)c2)cc1 | 19.8%
Cn1c(OCc2cccnc2)nc2c1c(=O)n(Cc1ccc(Br)cc1)c(=O)n2C | -19.4%
N/C(=N\OC(=O)CCC1CCCC1)c1ccc([N+](=O)[O-])cc1 | 1.2%
CC(=O)N1CCC2(CC1)CC(=O)c1cc(Cl)ccc1O2 | -5.2%
COc1cccc(CC(NC(C)=O)C(=O)NC2CCN(S(=O)(=O)c3ccc(NC(C)=O)cc3)CC2)c1OC (centres undefined) | 15.8%
Cc1c(Cl)cccc1NC(=O)c1cc(-c2cccc(Cl)c2)on1 | -23.6%
COc1ccccc1C(=O)OCc1cc(=O)n2c(C)csc2n1 | 1.4%
Cc1ccc(NC(=O)c2cnccn2)cc1C | 1.0%
CC(c1cccs1)N(C(=O)Nc1ccccc1)C1CCCCC1 (centres undefined) | -17.2%
O=S1(=O)C=CC(Nc2cccc(Cl)c2)C1 (centres undefined) | -0.5%
Cc1nc2cnc(N3CCN(C)CC3)nc2n(Cc2cccs2)c1=O | -5.8%
O=C(NCc1ccco1)Nc1ccc(Br)cc1Cl | -4.8%
COc1ccc(/C=C2/CCCC(CN(C)C)C2=O)cc1 (centres undefined) | ?
O=C(NCc1ccco1)c1ccccc1O | -7.8%
Cn1sc(NC(=O)c2ccccc2)nc1=O | -5.0%
CCCCNC(=S)Nc1ccccc1F | 15.3%
CCc1ccccc1NC(=O)CSc1nnc(Cn2nnc3ccccc32)n1C | -3.8%

Following part.
SMILES | VDR inh
COC(=O)c1sccc1NC(=O)Nc1ccc(C(C)=O)cc1 | 7.7%
COc1cc2c(c(OC)c1OC)-c1ccc(OC)c(=O)cc1[C@@H](NC=O)CC2 | 15.5%
Cc1onc(-c2c(Cl)cccc2Cl)c1C(=O)N1CCN(c2ccccc2)CC1 | 10.0%
COc1ccc(CNC(=O)c2sccc2C)cc1 | 18.4%
Cc1noc(C)c1-c1ccc2ncnc(NC(C)c3ccco3)c2c1 (centres undefined) | -3.8%
Cc1ccccc1C(=O)NN(C)c1nc2ccccc2nc1C(F)(F)F | 17.2%
Cc1ccccc1OCc1nc2ccc(S(=O)(=O)N3CCOCC3)cc2[nH]1 | 39.8µM*
Nc1ncnc2c1ncn2[C@H]1C[C@H](O)[C@@H](COP(=O)(O)O)O1 | -18.5%
COc1cccc(-c2ccc(NC(=O)C3CCCN(CCCn4nc(C)cc4C)C3)cc2)c1 (centres undefined) | -14.4%
O=C(O)CSc1ncnc2scc(-c3ccc(Br)cc3)c12 | -0.5%
COc1cc(S(=O)(=O)Nc2c(C)cc(C)cc2C)ccc1Cl | 6.0%
CC(C)c1ccc(NC(=O)C2CCN(S(=O)(=O)c3cccc4nsnc34)CC2)cc1 | -23.6%
Cc1ccc(S(=O)(=O)CCNC(=O)Cc2ccc(Cl)cc2)cc1 | -3.9%
CN1C(=O)c2cccc(N(C)C)c2C1=O | 7.2%
CCOC(=O)c1cccc(NC(=O)CSc2nc3cc4ccccc4cc3[nH]2)c1 | -6.9%
O=C(O)C1CC=CCC1C(=O)NC12CC3CC(CC(C3)C1)C2 (centres undefined) | -4.9%
COc1ccc(NC(=O)c2ccccc2NC(=O)c2ccco2)c(OC)c1 | 8.3%
CCOc1ccc(C(=O)NC(=S)Nc2ccc(NC(=O)c3ccco3)cc2)cc1[N+](=O)[O-] | -24.6%
O=C(Cn1nc(C(=O)O)c2ccccc2c1=O)Nc1cc(S(=O)(=O)N2CCOCC2)ccc1Cl | 11.3%
Cc1ccc(-n2ncc3c(NCc4ccco4)ncnc32)cc1C | 0.1%
O=C(NCc1ccco1)/C(=C/c1ccc(Cl)cc1)NC(=O)c1ccco1 | -2.3%
O=C(Cc1ccccc1Cl)N/N=C/c1cccnc1 | 12.7%
CCOC(=O)C1CCCN(C(=O)c2ccc(S(=O)(=O)N3CCCC3)cc2)C1 (centres undefined) | -5.9%
CN(C)CCCNc1oc(-c2ccc(Cl)cc2)nc1C#N | 6.0%
O=C1CC(c2ccccc2)Oc2cc(O)cc(O)c21 (centres undefined) | -10.6%

4 entries from above, reformatted:
> CCOc1ccc(C(=O)NC(=S)Nc2ccc(NC(=O)c3ccco3)cc2)cc1[N+](=O)[O-]
  VDR inh = -24.6%

> COc1cc(S(=O)(=O)Nc2c(C)cc(C)cc2C)ccc1Cl
  VDR inh = 6.0%

> CN(C)CCCNc1oc(-c2ccc(Cl)cc2)nc1C#N
  VDR inh = 6.0%

> O=C(O)C1CC=CCC1C(=O)NC12CC3CC(CC(C3)C1)C2 (centres undefined)
  VDR inh = -4.9%

(continued)
SMILES	VDR inh
Cc1ccc(C2CC(=O)c3cnn(-c4nc(C)cc(C)n4)c3C2)cc1 (centres undefined)	2.5%
O=S(=O)(c1ccccc1)N1CCN(c2nc(-c3cccs3)nc3ccccc23)CC1	-3.8%
O=C(Cn1cc2c(n1)CCCC2)NCCCN1CCN(C2CCCCC2)CC1	-8.0%
CCCn1c(C)cc(/C=C(\C#N)C(=O)O)c1C	-1.8%
Cc1ccc2cccc(OCc3ccccc3)c2n1	4.8%
COc1ccc(Cn2c(-c3ccco3)nc3c(c(=O)c4ccccc4n3C)c2=O)cc1	2.8%
Cc1ccc(NC(=O)C(C)[n+]2ccccc2)cc1[N+](=O)[O-] (centres undefined)	1.0%
COc1ccc(C2CCCN2C(=O)Nc2ccc(F)cc2)cc1OC (centres undefined)	7.7%
CN(C)c1ccc(CNC2CC(C)(C)NC(C)(C)C2)cc1	8.6%
CCOC(=O)c1ccccc1NC(=O)CCc1c(C)nc2c(c1C)c(=O)n(C)c(=O)n2C	-14.9%
O=C1Cc2c(-c3ccccc3)cc(-c3cccc(Cl)c3)nc2-c2ccccc2N1	0.6%
N#Cc1c(-c2ccccc2)ccn(Cc2cccc(Cl)c2)c1=O	-0.7%
O=C(NCc1cccnc1)c1ccc(COc2ccc(Cl)cc2)cc1	-17.6%
CC12CCC(=O)N1C(C(=O)OCC(=O)Nc1ccc(C(F)(F)F)cc1)CS2 (centres undefined)	6.7%
CC12CCC(C(=O)Nc3cccc(NC(=O)C45CCC(C)(C(=O)O4)C5(C)C)n3)(OC1=O)C2(C)C	-9.1%
COCC(C)NCc1ccccc1C (centres undefined)	4.8%
CCc1ccccc1OCC(=O)N(CC)CC(=O)NCc1ccc(F)cc1	-13.7%
CN1CCN(C(=O)c2ccc(N(Cc3ccccc3Cl)S(C)(=O)=O)cc2)CC1	15.7%
Cc1ccccc1NC(=O)N1CCCC1C(=O)NCc1cccs1 (centres undefined)	3.1%
Nc1cccc(-c2cn(-c3cc4cc(C#CC5(O)CCCCC5)ccc4oc3=O)nn2)c1	-10.5%
O=S(=O)(c1ccc2nc(N3CCN(c4ccccc4)CC3)ccc2c1)N1CCCCC1	-3.5%&15.3%
O=C1C=C(c2cccs2)C[C@H](c2ccccc2)[C@H]1n1nnc([N+](=O)[O-])n1	-8.5%
O=C(C[n+]1cc(-c2ccc(F)cc2)n2c1CCC2)Nc1nc(-c2ccc(F)cc2)cs1	-2.2%
O=C(Nc1cccc2cccnc12)C1CCCC1	4.1%
O=C(O)CCCC(=O)Nc1ccc(Cl)cc1	-25.0%

Given as labelled records: two of the compounds above
CCOc1ccc(C(=O)NC(=S)Nc2ccc(NC(=O)c3ccco3)cc2)cc1[N+](=O)[O-]
  VDR inh: -24.6%
O=C(Cn1nc(C(=O)O)c2ccccc2c1=O)Nc1cc(S(=O)(=O)N2CCOCC2)ccc1Cl
  VDR inh: 11.3%

The listing continues:
SMILES	VDR inh
CCC(CCC(=O)Nc1cccc(C(=O)O)c1)C(=O)O (centres undefined)	3.8%
COc1cccc(Cn2cnc3c(NS(=O)(=O)c4ccc(Cl)cc4)c(C)c(C)cc32)c1	7.3%
COc1ccc(CNC(=O)c2c(O)c3ccccc3n(C)c2=O)cc1	-9.3%
C/C(CC(=O)Nc1ccc(C)c(Cl)c1)=N\NC(=O)c1ccncc1	-15.6%
CCC(C(=O)N1CCN(c2cccc(Cl)c2)CC1)c1ccccc1 (centres undefined)	-8.3%
Cc1nn(-c2ccccc2)c(Cl)c1/C=N/Nc1nncc(=O)[nH]1	-0.4%
COc1ccc(C2=CSC3=NCCN23)cc1	-3.5%
O=C(Nc1ccc(F)cc1)c1cccc(C(=O)Nc2ccc(F)cc2)c1	-7.0%
O=C(Nc1cccc(O)c1)c1ccccc1[N+](=O)[O-]	1.7%
COc1ccccc1C(=O)N/C(=C/c1ccccc1)C(=O)NC(CCSC)C(=O)O (centres undefined)	3.7%
O=C(N/N=C/c1cccs1)c1ccc2nc[nH]c2c1	7.9%
CCc1ccc[n+](-c2[nH]c(=O)sc2/C=N/N=C(\[O-])c2cccnc2)c1	-14.9%
O=C(NC1CCCCC1)C(c1ccccc1)N(Cc1ccc2c(c1)OCO2)C(=O)c1cnsn1 (centres undefined)	18.6%
O=C(CC1CCCCC1)Nc1ccc(-c2ccc3nncn3n2)cc1	12.7%
COc1ccccc1/C=C/C(=O)OCC(=O)Nc1c(F)cccc1F	-5.8%
COc1cc(C(C(=O)NC2CCCC2)N(CCO)C(=O)Cn2nnc(-c3ccc(C)o3)n2)ccc1O (centres undefined)	-9.0%
COc1ccc2c(c1)c1c(c(=O)n(-c3cccc(Cl)c3)c(=O)n1C)n2C	10.9%
CC(=O)Nc1ccc(/C(C)=N/Nc2nc(N3CCOCC3)nc(N3CCOCC3)n2)cc1	?
COc1ccc(NC(=O)COc2ccccc2Cl)cc1S(=O)(=O)N1CCCCC1	-4.6%
CN(N=Nc1cccc([N+](=O)[O-])c1)c1ccccc1	-14.4%
COc1ccccc1CCNC(=O)c1ccc(-c2nc(CSc3ccc(C)cc3)c(C)o2)cc1	2.0%
O=C(NCc1ccco1)c1cc(-c2ccncc2)nc2ccccc12	-8.0%
C=CCn1c(C)cc(C(=O)COC(=O)/C=C/c2c(C)nn(C3CCS(=O)(=O)C3)c2Cl)c1C (centres undefined)	-1.3%
CS(=O)(=O)c1ccc(Cl)c(NC(=O)Cc2ccccc2F)c1	79.4µM*
COc1cc(C(=O)Sc2ccc(Cl)cc2)cc(OC)c1OC	?
Cc1cccc(N=C2NC(=O)CS2)c1C	5.9%

Three compounds already listed, ordered by the number in VDR inh, rising:
SMILES	VDR inh
CCOc1ccc(-c2cc(N)n(S(=O)(=O)c3ccc(OC)c(OC)c3)n2)cc1	-19.9%
N/C(=N\OC(=O)CCC1CCCC1)c1ccc([N+](=O)[O-])cc1	1.2%
COc1cc(S(=O)(=O)Nc2c(C)cc(C)cc2C)ccc1Cl	6.0%

Not all compounds are listed; count on the stated rates, not on these rows.
